Mtb hypoxia inh – PubChem AID 1159583; M. tuberculosis hypoxia-regulated fluorescent reporter, fluorescence; fluorescence inhibition, % (no concentration beside the values); 0.1% of 300,000 active;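 active means 35 to 45% if threefold the growth effect, above 45% if 1.5-fold the growth effect; inactive means the rest, general growth blockers included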;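 further: wells of about 50 µL received 100 nL stock; 0% = vehicle wells and 100% = reference inhibitor wells; whole bacteria with a GFP reporter of the hypoxia response; strong numbers were not always called active; many hits fall short of the cut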
RN4220 kill – growth inhibition of S. aureus RN4220, primary screen, OD600; inhibition, % (test concentration not listed); 0.33% of 330,000 active; 16 h; AID 1259311, 2017;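 active means z-score of -3 or lower and OD600 up to 0.18 on both plates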;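 further: plate controls were untreated cells for no effect and reference antibiotic for full effect; stock transfer was 100 nL into about 80 µL; one replicate is shown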
PrP 5UTR inh – inhibition of PrP 5' UTR reporter expression | inhibition, % (no concentration beside the values) | AID 488862, 2010 | cell-based PrP 5' UTR mRNA reporter, plate reader | 0.35% of 340,000 active;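 active means every replicate at 50% or more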;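 further: 0 = median of the neutral control wells; tested in H4 reporter cells; numbers are from one replicate; inactives centre near -14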
Autofluor counter – flagged as autofluorescent in microsphere protease counterscreen; 3.1% of 360,000 active; fluorescence intensity (no concentration beside the values); AID 624483; compound autofluorescence counterscreen, microsphere flow cytometry; stronger effect = higher value;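 active means at least 3 SD above the mean of all compounds, about 16000 in these data; inconclusive means too few beads counted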;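 further: 100 nL of 1 mM stock went into each well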
ugtP null kill – growth inhibition of ugtP-null S. aureus, primary screen, RN4220 ugtP deletion, OD600; 16 h; some inactives read as strong as hits; growth inhibition, % (no concentration beside the values); 0.54% of 330,000 active;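 active means z-score under -3 and OD600 up to 0.15 on both plates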;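 further: plate controls were untreated wells for no effect and antibiotic for full effect; wells of about 80 µL received 100 nL stock; the first replicate is given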
BJeLR viability – MLPCN primary cell-based screen for lethality selective to Ras in HRASV12 cells; inhibition, % (test concentration not listed); BJeLR (HRASV12) viability, CellTiter-Glo ATP luminescence, 48 h; reference of the scale not given here; AID 1554, 2009; 0.17% of 300,000 active;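 active means replicate mean above 50%; inconclusive means above 50% but judged a plate artefact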;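 further: 50 nL library stock added to about 25 µL; numbers are from one replicate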
Mtb hypoxia inh growth – second read-out of Mtb hypoxia inh, no call of its own (marks repeat the call); growth inhibition, %; measured here: M. tuberculosis growth (absorbance);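 0% = vehicle and 100% = reference antibiotic; read after six days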
* = called active by the depositor; u = inconclusive; x = no result given.

SMILES | Mtb hypoxia inh | Mtb hypoxia inh growth | RN4220 kill | PrP 5UTR inh | Autofluor counter | ugtP null kill | BJeLR viability
Cn1ncc([N+](=O)[O-])c1C(=O)Nc1ccc(C2CCCCC2)cc1 | 10 | 7 | 1.0 | -37 | 3444 | -3 | -1
COc1ccccc1CNC(=O)CNC(=O)Cn1cnc2ccccc2c1=O | x | x | 1.5 | -26 | 2484 | 0 | 8
CCOC(=O)C(=NNc1ccccc1)N1CC1 | 0 | 12 | -0.7 | x | x | -4 | x
O=C(Oc1ccccc1Cl)C1CCN(C(=O)c2ccc(F)cc2)CC1 | 12 | 0 | 1.7 | -23 | u | 7 | 1
C=CCNC(=O)c1onc(CCl)c1C(=O)OC | 20 | 20 | 2.8 | -22 | 3941 | 0 | 8
COc1ccc(CN(C)CC(=O)Nc2sc3c(c2C#N)CCC3)c(OC)c1 | -2 | -4 | 0.7 | -20 | 4460 | -5 | 10
CCOc1ccc(S(=O)(=O)N2CCC(C(N)=O)CC2)c2ccccc12 | x | x | 3.1 | -4 | 3692 | 4 | 4
CCc1nnc(NC(=O)CSc2nnc(COc3ccccc3C)o2)s1 | 5 | 5 | 0.4 | -17 | 4500 | -20 | -18
Cc1cccc(N2CC(=O)N(c3cccc(C)c3)CC2=O)c1 | 4 | 5 | -2.4 | 2 | 4680 | 7 | -6
CN(CC(=O)Nc1ccc(F)cc1)C(=O)c1ccccc1OCc1ccc(F)cc1 | 5 | 8 | 0.6 | -11 | u | -3 | -9
CC1(C)NC(=O)N(CC(=O)OCC(=O)N2CCN(S(=O)(=O)c3ccccc3)CC2)C1=O | -1 | 15 | 0.9 | -5 | u | 6 | x
c1ccc2c(-c3nnc(SCc4cn5ccccc5n4)o3)c[nH]c2c1 | 4 | 1 | 8.5 | -54 | 2837 | -9 | -1
O=C(c1cc(COc2cccc3cnccc23)on1)N1CCCC(CCCO)C1 (stereo not given) | -5 | 8 | -1.2 | 11 | 6152 | -2 | 17
Cc1cc(C)n2nc(C(=O)NC(c3ccccc3)c3ccccc3)nc2n1 | -11 | -8 | 2.9 | -12 | 5114 | 3 | 8
C/C(CC(=O)Nc1cc(C)ccn1)=N\NC(=O)C(=O)NC(C)C | x | x | x | -37 | 3480 | x | -4
N#CC1=C2N=C(N)c3ccccc3N2C2=C(C(=O)CCC2)C1c1ccccc1F (stereo not given) | 3 | 8 | 5.6 | x | 4775 | -1 | -5
Cn1cc(CNCc2cn(C)nc2-c2ccc(C3CCCCC3)cc2)cn1 | 8 | 7 | -4.3 | 11 | 3348 | -1 | -12
CCN(CC)CCNC(=O)Cc1nn(Cc2ccccc2)c(=O)c2ccccc12 | 13 | 12 | 1.5 | -17 | 5144 | -1 | 3
O=C(Nc1cccc2cccnc12)c1ccc2c(c1)OCCO2 | 6 | 2 | 14 | 1 | 23021* | -7 | 3
O=C1CNC(=O)/C1=C/c1ccccc1 | 17 | 0 | 4.5 | -8 | 2076 | 3 | 8
COCCN(C(=O)COC(=O)CCOc1cc(C)ccc1C)c1c(N)n(Cc2ccccc2)c(=O)[nH]c1=O | 7 | 0 | 9.5 | -18 | 3634 | -7 | x
O=C(CN1C(=O)NC2(CCCCCC2)C1=O)Nc1ccc(Cl)cc1Cl | 3 | -2 | 0.9 | -8 | 6383 | -1 | x
CC(C)CNC(=O)C(=O)NNC(=O)C1CCCCC1 | 3 | 6 | 0.2 | -4 | 21511* | -1 | 4
CC(C)Nc1nnc(SC(C)C(=O)N(C)C2CCCCC2)s1 (stereo not given) | 11 | 12 | 5.7 | -30 | 5113 | 7 | 8
CS(=O)(=O)Nc1cccc(C2=NN(S(=O)(=O)c3ccc(F)cc3)C(c3cccs3)C2)c1 (stereo not given) | 2 | 0 | 10 | -1 | 3403 | 12 | 10

Overlap with the part before: six entries, then new ones.
SMILES | Mtb hypoxia inh | Mtb hypoxia inh growth | RN4220 kill | PrP 5UTR inh | Autofluor counter | ugtP null kill | BJeLR viability
O=C1CNC(=O)/C1=C/c1ccccc1 | 17 | 0 | 4.5 | -8 | 2076 | 3 | 8
COCCN(C(=O)COC(=O)CCOc1cc(C)ccc1C)c1c(N)n(Cc2ccccc2)c(=O)[nH]c1=O | 7 | 0 | 9.5 | -18 | 3634 | -7 | x
O=C(CN1C(=O)NC2(CCCCCC2)C1=O)Nc1ccc(Cl)cc1Cl | 3 | -2 | 0.9 | -8 | 6383 | -1 | x
CC(C)CNC(=O)C(=O)NNC(=O)C1CCCCC1 | 3 | 6 | 0.2 | -4 | 21511* | -1 | 4
CC(C)Nc1nnc(SC(C)C(=O)N(C)C2CCCCC2)s1 (stereo not given) | 11 | 12 | 5.7 | -30 | 5113 | 7 | 8
CS(=O)(=O)Nc1cccc(C2=NN(S(=O)(=O)c3ccc(F)cc3)C(c3cccs3)C2)c1 (stereo not given) | 2 | 0 | 10 | -1 | 3403 | 12 | 10
O=C(Nc1ccccc1C(=O)O)c1ccc(Cl)c(S(=O)(=O)N2CCOCC2)c1 | 1 | 7 | 5.0 | -26 | 2876 | -5 | -1
CCOC(=O)C1=C(O)/C(=C/c2ccccn2)SC1=Nc1ccc(Cl)cc1 | 8 | 4 | 6.6 | -8 | 2191 | -11 | 4
COC(=O)C1CC1C(N)c1ccccc1 (stereo not given) | 11 | 8 | 2.1 | x | x | -6 | x
O=C(CCCNS(=O)(=O)c1ccc(Cl)c(Cl)c1)NCCc1ccccn1 | 13 | 9 | 6.1 | -17 | 4682 | 3 | -12
COc1cc(S(=O)(=O)N2CCC(N3CCCCC3)CC2)ccc1-n1cnnn1 | 4 | 7 | -9.1 | -5 | 4345 | -3 | 2
COc1ccc(NS(=O)(=O)c2ccc(O)c(C(=O)OCC(=O)Nc3ccc4c(c3)OCCO4)c2)cc1 | 6 | 2 | -2.0 | -15 | 1997 | 19 | -6
CC(C)OC(=O)CSc1nnc(CNc2cccc(Cl)c2)n1C | x | x | -1.3 | -14 | 4441 | -1 | -3
CCOc1ccc(C2C([N+](=O)[O-])=C(C)N(C)C(=O)N2C)cc1OC (stereo not given) | 11 | 5 | 3.3 | -7 | 3585 | 4 | 0
N/C(=N\OC(=O)c1ccc(Cl)c([N+](=O)[O-])c1)c1ccccn1 | x | x | x | -20 | 3119 | x | 14
Cc1ccc(C)c(N2CCN(C(=O)CCc3nc4ccccc4[nH]3)CC2)c1 | -3 | 3 | -9.7 | -6 | 5946 | -7 | -2
Cc1cccc(Nc2nnc(SCC3CCCCO3)s2)c1 (stereo not given) | 7 | 12 | 2.6 | -46 | 2050 | -6 | 0
C=CCc1ccccc1OCC(O)CN1CCN(C(=O)OCC)CC1 (stereo not given) | x | x | 1.8 | -6 | 2891 | 0 | -2
CSc1nnc2c(n1)OC1(Nc3ccccc3-2)C(=O)Nc2ccccc21 (stereo not given) | 16 | 4 | 1.4 | -25 | 4690 | 0 | 3
CCOCC(=O)Nc1nnc(COCC)s1 | x | x | 0.7 | -41 | 2645 | 6 | -2
CC(=O)N1c2ccc(S(=O)(=O)N3CCCCC3)cc2CC1C(=O)Nc1cccc(C)c1 (stereo not given) | 16 | 3 | 0.2 | -4 | 6081 | -4 | 18
CCC(C)N1CCN(C(=O)c2cc(OC)cc(OC)c2)CC1 (stereo not given) | 2 | -3 | 3.6 | -13 | 3570 | 1 | -4
Cc1ccc(NC(=O)C2CCN(S(=O)(=O)c3ccc4ccccc4c3)CC2)nc1 | 4 | 2 | -0.4 | -32 | 5051 | 1 | x
CN(C)S(=O)(=O)N1CCC(Oc2cccc(C(=O)NC3CCCCC3)c2)CC1 | 3 | 8 | 0.7 | -4 | 6051 | 1 | 13
Cc1ccc(C(=O)COC(=O)CNC(=O)CNC(=O)c2ccc(C)cc2)cc1 | 5 | 13 | 5.3 | -30 | 11904 | -4 | -9
O=C(NC(=S)NCc1cccnc1)c1cc(Br)ccc1Cl | 7 | -4 | 5.0 | -13 | u | 9 | -8
CC(C)(C)N(Cc1cc2ccccc2[nH]c1=O)C(=O)c1ccco1 | 5 | 1 | 2.0 | -20 | 5043 | 0 | -1
COC(=O)C1=C2SC(C)C(=O)N2C(N)=C(C#N)C1c1ccc(OC)c(OC)c1 (stereo not given) | 4 | 7 | -13 | -28 | 2764 | -7 | -5
CCN(CC)N=O | 12 | 6 | 5.7 | -15 | 5807 | 3 | x
Cc1ccc(C2=NS(=O)(=O)N(C)C(C(=O)NCc3ccc4c(c3)OCO4)=C2)cc1 | -2 | -1 | 8.1 | -12 | 6503 | 5 | 14
Oc1ccc(Cl)cc1-c1cc(-c2ccco2)[nH]n1 | x | x | -5.8 | -28 | 2080 | -25 | 10

An excerpt from above, limited to RN4220 kill, Mtb hypoxia inh and Mtb hypoxia inh growth:
smiles	RN4220 kill	Mtb hypoxia inh	Mtb hypoxia inh growth
CC(C)OC(=O)CSc1nnc(CNc2cccc(Cl)c2)n1C	-1.3	x	x
Cc1ccc(C(=O)COC(=O)CNC(=O)CNC(=O)c2ccc(C)cc2)cc1	5.3	5	13

Next part:
SMILES | Mtb hypoxia inh | Mtb hypoxia inh growth | RN4220 kill | PrP 5UTR inh | Autofluor counter | ugtP null kill | BJeLR viability
CCC(=O)NC(=S)Nc1cccc(NC(=O)c2ccccc2Cl)c1 | x | x | 5.0 | -21 | 2836 | -12 | 0
CC1c2ccccc2-c2ccccc2N1C (stereo not given) | 3 | 3 | 3.0 | -21 | 3267 | -1 | x
Cc1ccc(-n2c(N)c(C(=O)Nc3ccccc3F)sc2=S)cc1C | 7 | 6 | -13 | 0 | 4527 | 5 | -5
C=CCn1c(COc2ccccc2)nnc1SCC(=O)N/N=C/c1cc(Cl)ccc1O | x | x | x | -13 | 2115 | x | -3
O=C1OCCC1Sc1nnc(-c2ccc3c(c2)OCO3)o1 (stereo not given) | 0 | -13 | 2.7 | -24 | 4302 | 10 | -4
CC(NC(=O)c1ccc(Br)s1)C1CCCO1 (stereo not given) | x | x | 1.7 | -28 | 11666 | -2 | 11
COc1ccc(C(CC(=O)O)NC(=O)c2ccccc2[N+](=O)[O-])cc1 (stereo not given) | x | x | 1.5 | -2 | 5976 | -5 | -3
CCN1CCN(c2cc(C(C)C)nc3c(-c4ccccc4)c(C)nn23)CC1 | 11 | 20 | -2.1 | x | 3734 | 1 | 5
O=C(CC1CC2CCC1C2)N1CCN(S(=O)(=O)c2ccccc2C(F)(F)F)CC1 (stereo not given) | 5 | 1 | 0.8 | -13 | 4378 | 4 | x
CCOc1ccc(-c2nnn(CC(=O)N3CCN(c4ccc(F)cc4)CC3)n2)cc1OCC | 7 | 8 | 1.5 | -19 | 6118 | 3 | 14
Cc1cc(=O)[nH]c2n[nH]c(-c3ccccc3)c12 | 7 | 8 | -1.5 | -11 | 2862 | 1 | 3
CCN=C1SC(C(=O)Nc2cccc(OCC)c2)CC(=O)N1CC (stereo not given) | 1 | -1 | -0.2 | -4 | 7266 | 2 | -4
COc1cc(C(=O)Nc2c(C)cc(C)cc2C)c(-n2cnnn2)cc1OC | 3 | 13 | 9.5 | -28 | 9190 | -18 | -3
CN1CCN(CCCNC(=O)c2ccc(/C=C3/Sc4ccccc4N(Cc4cccc(Cl)c4)C3=O)cc2)CC1 | 9 | 9 | -1.9 | -19 | 4561 | 19 | 3
O=C(COC(=O)c1c(F)cccc1F)Nc1ccc2c(c1)OCO2 | 14 | 5 | 3.5 | -20 | 5693 | 1 | x
Cc1cc(OCC(=O)O)c2ccccc2n1 | 14 | 13 | 5.9 | -20 | 4020 | -2 | -6
CCOC(=O)C1CCN(C(=O)COc2ccc(S(=O)(=O)N3CCCC3)cc2C)CC1 | 0 | 1 | 4.7 | -19 | 4791 | -3 | 1
c1ccc2nc3c(nc2c1)CCCC3 | 14 | 11 | 2.1 | -15 | 3524 | 0 | -5
COc1ccc2nc(N3CCC(O)CC3)c(C#N)cc2c1 | x | x | 0.7 | -33 | 3170 | 10 | -7
Cc1cc(SCC(=O)c2ccc(O)c(O)c2)n2nc(C)c(-c3ccccc3)c2n1 | 15 | 5 | 6.6 | -18 | 4881 | 7 | 6
COc1ccccc1N1CCN(C(=O)CN2C(=O)C3CCCCC3C2=O)CC1 (stereo not given) | 2 | -1 | 4.7 | -30 | 4061 | 5 | 7
O=S(Cc1ccc(Br)cc1)Cc1nnc(SCc2c(F)cccc2Cl)n1-c1ccccc1 (stereo not given) | 0 | 3 | 2.9 | 6 | 2036 | -23 | 4
COc1ccccc1CN(C)C(=O)CSCC(=O)Nc1ccccc1F | -2 | 5 | 0.8 | -17 | 5223 | 0 | x
Cc1ccc(OCCCCN2CCC(C)CC2)cc1 | 20 | 12 | 3.1 | -10 | 3664 | 4 | 0

Random draw from the library; any-hit rate near 3.9%.
